# From PubChem
# HPGD inh: blocks human HPGD enzyme activity; Potency, µM, without a hit: top-dose activity change, negative = inhibition, hits mostly inhibitors; purified HPGD, NADH fluorescence kinetic, PGE2 substrate; P15428; actives 4.3% (n = 150,000); active = well fitted inhibition curve with a large enough effect (not every such curve was filed as active); inconclusive = small, poorly fitted or top-dose-only effect, or another doubt; inactive = no such curve, though single readings can be large or run the other way;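 also: top concentration of the series not given in the record; plate controls included wells without enzyme; inactives centre near -10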
# Target sequence (P15428 whole entry, looked up): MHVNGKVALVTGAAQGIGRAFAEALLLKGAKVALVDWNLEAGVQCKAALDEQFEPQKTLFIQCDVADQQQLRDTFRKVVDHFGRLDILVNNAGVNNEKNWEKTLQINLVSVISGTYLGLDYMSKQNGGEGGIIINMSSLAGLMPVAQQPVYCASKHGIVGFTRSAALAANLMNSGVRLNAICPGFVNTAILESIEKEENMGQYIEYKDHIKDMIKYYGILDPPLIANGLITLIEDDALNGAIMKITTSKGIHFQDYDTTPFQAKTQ
#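 NADH formation kinetics: reaction with 30 uM PGE2 and 1 mM NAD+ (final), 20 nM enzyme, Tris-HCl pH 8 with Tween 20, after 15 min compound preincubation at room temperature. Fluorescence change, last versus first of five reads.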
# * marks the source's active call; other numbers are inactive results; u = inconclusive; [ ] = another dose, or the depositor's remark. % is scaled to controls: 0 for no effect and ±100 for the full control effect; potency is read from the fitted curve at half-maximal effect. Some of the compounds tested, so the mix of outcomes need not match the whole.
HPGD inh | SMILES
-20.8% | CCOC(=O)CN=C1CC(C)(C)CC2=C1Sc1ncnc(N(C)C)c1N2
-10.4% | Cc1cc(Nc2ccc3c(c2)OCCO3)c2ccccc2n1
u | Cc1nc(N2CCOCC2)c2nc(-c3ccccc3)n(CC3CCN(C)CC3)c2n1
-7.0% | CCC(=O)Nc1ccc(C(=O)CSc2nnc(-c3ccc(O)cc3)n2CC2CCCO2)cc1 (stereo not drawn)
-5.3% | Cc1nn(C)c(C)c1/C=N/NC(=O)CCn1nc(C)c([N+](=O)[O-])c1C
-26.2% | COC(=O)c1scc(C)c1N/N=C(\C)c1ccc(F)cc1
u | COc1ccc2nc(NC(=O)c3ccc(Br)s3)sc2c1
-18.2% | Nc1c(C(=O)Nc2ccccc2)sc2nc3c(c(-c4ccco4)c12)CCCC3
u | CS(=O)(=O)Nc1ccc2c3c(cccc13)CC2
-9.4% | Cc1cc(Cl)nc2ccc(Cc3ccc4nc(Cl)cc(C)c4c3)cc12
-25.6% | COc1cccc(CNC(=O)C2CCC(CNS(=O)(=O)c3cccc4nsnc34)CC2)c1 (stereo not drawn)
-17.0% | CC(C)N1C(=O)CCC1C(=O)N1CCC(Cc2ccccc2)CC1 (stereo not drawn)
-5.2% | O=C(Cc1ccc(F)cc1)Nc1c2c(nn1-c1cccc(Cl)c1)CS(=O)C2 (stereo not drawn)
-10.2% | Cc1cc(=O)[nH]c(Nc2c(C)n(C)n(-c3ccccc3)c2=O)n1
-21.1% | Cc1ccc(NC(=O)NC2=N/C(=C(/C#N)C(=O)N3CCCC3)c3ccccc32)cc1
-23.9% | CC(C)(C)c1ccc(CSc2nnc(-c3ccccn3)n2Cc2ccco2)cc1
-19.0% | Cc1cccc(N2CCN(S(=O)(=O)c3ccc4c(c3)n(C)c(=O)c(=O)n4C)CC2C)c1 (stereo not drawn)
u | COC(=O)c1sccc1N/N=C/c1ccc(OC)c(OC)c1OC
-18.7% | Cn1cccc1C(=S)N1CCOCC1
-18.6% | O=S(=O)(C(=CNc1ccccc1)S(=O)(=O)c1ccccc1)c1ccccc1
u | Cc1ccc(N2CCCn3c2cc(C)c(C#N)c3=O)cc1Cl
-5.0% | Cc1ccc2cc(C=C(C#N)C#N)c(N3CCCCC3)nc2c1
68.0%[activator] | Cc1nc2ccc(NC(=O)c3ccc(S(=O)(=O)N4CCOCC4)cc3)cc2s1
-4.8% | Cc1ccc(-c2nn(CC(=O)NCCN3CCOCC3)c(=O)c3ccccc23)cc1
-23.6% | O=C(N/N=C\c1ccc(Sc2ccccn2)o1)c1cccc(Br)c1
-9.4% | Cc1ccc([C@@]2(C)CC/C(=N/N=C3\CC[C@](C)(c4ccc(C)c(C)c4)c4cc(C)c(C)cc43)c3cc(C)c(C)cc32)cc1C
-13.4% | COc1cccc(CN(C)C(=O)Nc2cccc(C(F)(F)F)c2)c1OC
-19.1% | CCCC(c1nnnn1CC(=O)OCC)N(Cc1cc2c(C)cc(C)cc2[nH]c1=O)C1CCCC1 (stereo not drawn)
-10.8% | CCOCCOC(=O)C(C)Sc1n[nH]c(=O)[nH]c1=O (stereo not drawn)
-10.7% | CCn1c(CSc2nc3ccccc3s2)nnc1SCC(=O)c1ccc2c(c1)OCCO2
-14.1% | CC(=O)Nc1ccccc1-c1nc2ccc(C(=O)N3CCN(c4cccc(C)c4)C(C)C3)cc2[nH]c1=O (stereo not drawn)
-4.5% | CC12COC3(C(=O)Nc4nccs4)CC1CCC32C (stereo not drawn)
-2.9% | CCCn1c(NCc2cccc(OC)c2OC)nc2ccccc21
-28.0% | Cc1ccccc1C(=O)N/N=C/c1ccc(OCC(=O)N2CCCCC2)cc1
-15.8% | CCCC(=O)NC(=S)N1CCN(c2ccc([N+](=O)[O-])cc2)CC1
7.94µM* | CSC1CCCCC1(O)CSc1nc2c(cc1C#N)CCCC2 (stereo not drawn)
-25.3% | O=C(Nc1ccc(-n2cnnn2)cc1)C1CCCCC1
-10.7% | Cc1cccc(Nc2c(-c3ccc(N4CCOCC4)cc3)nc3ncccn23)c1
-7.7% | O=C(COC(=O)CCCNC(=O)c1ccc(Cl)cc1)Nc1cc(Cl)c(Cl)cc1Cl
u | CCOC(=O)c1c(NC(=O)Cn2nnc(-c3ccccc3Cl)n2)sc(C)c1C
-7.7% | CCOc1ccc(NC(=O)CN2CCN(CC(=O)Nc3ccc(OC)cc3)CC2)cc1
-19.3% | Cc1ccc(C(C)C)c(OCc2nc(-c3nonc3N)no2)c1
22.4µM* | N#Cc1c(-c2ccncc2)c2c([nH]c1=S)CCCC2
-10.8% | CC1(C)CC(=O)C=C(NCCCNC2CCCCC2)C1
-8.3% | CN(C)c1cc(N)c2ccccc2n1 (tested in a mixture with another compound)
u | CN(C)c1ccc(-c2cncnc2NCc2cccs2)cc1
-7.4% | Cc1cc(C)c(S(=O)(=O)N2CCCOC2CNC(=O)C(=O)NCc2ccncc2)c(C)c1 (stereo not drawn)
-11.0% | O=C(NCCc1ccccc1)c1cccnc1
-0.9% | Cn1c(=O)c(C#N)c(-c2ccccc2)n2cnnc12
-13.8% | COc1cc(C=C(C(C)=O)C(C)=O)ccc1O
-1.1% | CCOC(=O)CC(NC(=O)C(CC)c1ccccc1)c1ccccc1Cl (stereo not drawn)
5.6% | CCS(=O)(=O)N1CCC(C(=O)Nc2cc(Cl)ccc2O)CC1
1.7% | COc1ccc(C)cc1S(=O)(=O)N(C)CC(=O)Nc1ccc2c(c1)OCCO2
-15.2% | COc1cc(N2C(=O)CSC23C(=O)Nc2ccccc23)cc(OC)c1OC (stereo not drawn)
-4.2% | CN(C)c1ccc(/C=c2\sc3nc(-c4ccccc4)nn3c2=O)cc1
15.8µM* | O=C(c1ccc(-c2ccccc2)cc1)N1CCC(C(=O)N2CCCC2)CC1
-3.4% | C=Cc1ccccn1
-13.7% | CC/C(=N/NC(=O)c1ccc(Br)o1)c1ccc(Cl)cc1
-14.9% | Cc1cccnc1-n1c(CCN2C(=O)c3ccccc3C2=O)nc2ccccc2c1=O
-0.4% | CCOC(=O)c1ccccc1NC(=S)N1CCC(N2CCCCC2)CC1

# In another format: results already given
CC/C(=N/NC(=O)c1ccc(Br)o1)c1ccc(Cl)cc1
  HPGD inh: -13.7%
COc1ccc(C)cc1S(=O)(=O)N(C)CC(=O)Nc1ccc2c(c1)OCCO2
  HPGD inh: 1.7%
CN(C)c1ccc(/C=c2\sc3nc(-c4ccccc4)nn3c2=O)cc1
  HPGD inh: -4.2%
CCOC(=O)c1ccccc1NC(=S)N1CCC(N2CCCCC2)CC1
  HPGD inh: -0.4%

# Remaining list, next part.
HPGD inh | SMILES
-5.2% | O=C(CSc1nnc(CNc2ccccc2)o1)N1CCCc2ccccc21
1.3% | O=S(=O)(c1ccc(Br)cc1)N1CCN(S(=O)(=O)c2ccc(Br)cc2)CC1
-12.2% | COCCn1nnnc1C(c1cccc(C(F)(F)F)c1)N1CCOCC1 (stereo not drawn)
-7.9% | CCCCC(CC)C(=O)NCc1ccc(F)cc1 (stereo not drawn)
-6.6% | CCOC(=O)C1CCCN(C(=O)C2CCCN(S(=O)(=O)c3ccc4c(c3)oc(=O)n4C)C2)C1 (stereo not drawn)
-3.8% | CN(C)CCN(c1ccccn1)c1ccccn1
1.6% | COc1cccc(OC)c1C(=O)NCCN1CCN(C(=O)c2c(OC)cccc2OC)CC1
-5.8% | O=C(c1cccc(F)c1)N1CCC[C@@]2(CCN(c3ccncc3)C2)C1
u | CCOC(=O)c1cnn2c(C(F)(F)F)cc(-c3cn(C)nc3C)nc12
-6.6% | COc1cccc2c1C(=N)c1c(O)c3c(c(O)c1C2=O)C[C@](O)(C(C)=O)C[C@@H]3O[C@H]1C[C@H](N)[C@@H](O)[C@H](C)O1
-26.4% | O=C(NCc1ccc(Cl)cc1Cl)C(=O)N1CCCCC1
-15.9% | O=C1C=C(NCCN2CCOCC2)C(=O)c2cnccc21
-10.3% | CSc1ccc(/C=C/C(=O)c2ccc(NC(=O)Cc3ccccc3)cc2)cc1
-15.0% | CCSc1nc2sc3c(c2c(=O)[nH]1)CCCC3
u | Cc1ccc2[nH]c3c(=O)n(CCN4CCOCC4)cnc3c2c1
u | CC(C)(C)NC(=S)Nc1ccc(Nc2ccccc2)cc1
-1.3% | CNC(=O)NC(=O)C(C)OC(=O)c1c(C)noc1C (stereo not drawn)
-6.7% | COc1ccccc1C1CC(=O)Oc2cc(C)c(Br)c(C)c21 (stereo not drawn)
-5.9% | Cc1ccc(S(=O)(=O)NCCCNS(C)(=O)=O)cc1
-22.4% | COc1ccc(-c2n[nH]c(=S)n2Cc2ccco2)cc1
1.2% | Cc1ccc(S(=O)(=O)N2CCC(=O)N(CCOCc3cccc(C)c3)CC2)cc1
-5.5% | CCCCNC(=O)CCn1c(=O)c2ccccc2n(Cc2ccc(F)cc2)c1=O
-8.1% | CCC(C)[C@H](NC(=O)Nc1ccc(Oc2ccccc2)cc1)C(=O)O (stereo partly drawn)
-5.0% | Clc1ccc(-c2noc(COc3ccccc3)n2)cc1
-8.1% | O=C(Nc1ccc2oc(-c3ccccc3)nc2c1)c1ccncc1
-26.0% | Cc1cc(C(=O)N/N=C/c2cc(Br)cc([N+](=O)[O-])c2O)c2ccccc2n1
-11.6% | O=C(NCc1ccccc1Cl)c1ccc2c(=O)n(CCCN3CCCC3=O)c(=S)[nH]c2c1
3.1% | CC(C)C(=O)OCCN=C1NS(=O)(=O)c2ccccc21
4.8% | COc1ccc(OCC(=O)N2CCOCC2)cc1
-10.0% | Cc1cc(OCC(O)CN(CCO)CCO)ccc1Cl (stereo not drawn)
u | CCCC(=O)Nc1ccc2oc(-c3ccncc3)nc2c1
-8.3% | CC(=O)CC(C)=NCCN=C(C)CC(C)=O
-21.7% | CCOC(=O)C1=C(CC)OC(N)=C(C#N)C1c1ccc(NC(C)=O)cc1 (stereo not drawn)
-13.1% | O=C(N/N=C/C=C\c1cccc([N+](=O)[O-])c1)c1ccccn1
-3.3% | Cc1ccc(NC(=S)NCCCN2CCOCC2)cc1
-3.6% | Cc1ccc(C2(C)NC(=O)N(CC(=O)NC(=O)NC3CCCC3)C2=O)cc1 (stereo not drawn)

# Some of these compounds in order of their number in HPGD inh, low to high.
HPGD inh | SMILES
-13.1% | O=C(N/N=C/C=C\c1cccc([N+](=O)[O-])c1)c1ccccn1
-8.3% | CC(=O)CC(C)=NCCN=C(C)CC(C)=O
-8.1% | O=C(Nc1ccc2oc(-c3ccccc3)nc2c1)c1ccncc1
-3.6% | Cc1ccc(C2(C)NC(=O)N(CC(=O)NC(=O)NC3CCCC3)C2=O)cc1 (stereo not drawn)
-3.3% | Cc1ccc(NC(=S)NCCCN2CCOCC2)cc1

# (listing goes on)
HPGD inh | SMILES
-3.4% | O=S(=O)(c1ccc(F)cc1)N1CCCC(CO)C1 (stereo not drawn)
-15.9% | Cc1ccc(C=Nc2cccnc2N)cc1
u | CC(C)c1ccc2c([Si](C)(C)C)c3c(nc2c1)-c1cccc(=O)n1C3
-25.6% | CCn1nc(C(=O)OCC(=O)c2ccc3c(c2)OCCO3)c2ccccc2c1=O
-15.4% | COc1nc(C)c2cc(C)oc2n1
-9.2% | CN(CCOc1ccc(-c2ccn(S(=O)(=O)c3c(Cl)cccc3Cl)n2)cc1)c1ccccn1
-6.0% | Cc1cc2c(c(=O)n1Cc1ccccn1)C(C(C)C)C(C#N)=C(N)O2 (stereo not drawn)
-2.0% | Cc1ccc(C)c(C(=O)CN2C(=O)CCC2=O)c1
-5.7% | COc1ccc(S(=O)(=O)Cc2ccc(C(=O)N3CCN(c4ccc(Cl)cc4)CC3)o2)cc1
-11.9% | COc1ccc(S(=O)(=O)Nc2nc3ccccc3nc2Nc2ccc3c(c2)OCO3)cc1
-2.8% | Cn1c(SCC(=O)N2CCc3ccccc3C2)nnc1-c1cccs1
-4.1% | COc1ccc(NC2=NCC(=O)N2c2ccccc2F)c(OC)c1
-2.6% | CN(C)c1nc(Oc2ccc(N)cc2)nc(N(C)C)n1
1.5% | Cc1ccc(CN(C(=O)c2cc(=O)c3cc(Cl)c(C)cc3o2)C2CCS(=O)(=O)C2)cc1 (stereo not drawn)
u | CC(C)CNc1oc(-c2ccc(F)cc2)nc1C#N
-6.4% | CCOC(=O)CNC(=O)C1(c2ccccc2)CCCC1
-11.1% | Cc1ccc(CNC(=O)c2ccc(NC(=O)CCS(=O)(=O)c3cccs3)cc2)cc1
-23.8% | Cc1ccc(C(=O)N/C(=C\c2ccco2)C(=O)NCc2cccnc2)cc1
u | COc1cc2cc(CN(CCCO)S(=O)(=O)c3ccccc3)c(=O)[nH]c2cc1OC
1.2% | O=C(CN(c1ccccc1)S(=O)(=O)c1ccc(Cl)cc1)Nc1ccccc1C(=O)N1CCCC1
-7.7% | Cc1cc(C)c(S(=O)(=O)Nc2ccc(C(=O)O)c(O)c2)cc1C
-13.0% | CC(C)c1nc(SCC(=O)N2CCCC2)c2ccccc2n1
-24.9% | O=C(Nc1ccncc1)C1COc2ccccc2O1 (stereo not drawn)
-10.2% | COc1ccc(NS(=O)(=O)c2ccc(NC(=O)Cc3cccs3)cc2)cc1

# Part of the list above, with each value named:
SMILES: CC(C)CNc1oc(-c2ccc(F)cc2)nc1C#N
  HPGD inh: u
SMILES: CC(C)c1nc(SCC(=O)N2CCCC2)c2ccccc2n1
  HPGD inh: -13.0%

# (list continues)
HPGD inh | SMILES
-5.5% | CC(C)NC(=O)CSc1nc(Cc2cccs2)nc2ccccc12
-17.3% | Cc1cccc(OCc2nnc(SCc3cc(=O)[nH]c4ccccc34)n2-c2ccccc2)c1
-17.2% | COc1ccc(-c2cc(C(F)(F)F)nc(N3CCN(Cc4ccccc4)CC3)n2)cc1OC
-25.5% | Cc1ccc(CCC(=O)Nc2ccc(S(N)(=O)=O)cc2)o1
-10.1% | COc1ccc(-c2nnc3ccc(SCC(=O)N4CCOCC4)nn23)cc1
-0.1% | Nc1nonc1C(=O)NC(c1ccccc1)c1ccccc1
u | CCn1c2ccccc2c2cc(NC(=O)CSc3nnc(C4CC4)n3Cc3ccco3)ccc21
